Screening results from PubChem BioAssay.
HIV Env fusion: inhibitors of HIV-1 Env-driven cell-cell fusion, primary screen, HeLa-JRFL effector, CEM21 target cells, luciferase; hit rate 1.1% among 360,000; AID 651610, 2012; inhibition, % at 12.3 µM;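 active means mean replicate inhibition score of at least 50 and every replicate individually at or above 50; inconclusive means only one of the two criteria met; inactive means mean below 50 and not all replicates reaching 50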;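 further: 0% = plate neutral controls and 100% = maraviroc near 300 nM; one replicate is shown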
MT1-MMP act inh: blockers of MT1-MMP proenzyme processing, primary screen, HT1080 RFP-PRO-GFP cells, GFP/RFP fluorescence. Matrix metalloproteinase-14 (Homo sapiens), P50281. GFP/RFP ratio fluorescence, overnight; percent of plate control window, DMSO zero. GFP/RFP ratio change, % at 20 µM. hit rate 0.061% among 360,000. AID 651647, 2012;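 active means GFP/RFP ratio change of at least 30% with cell ATP level not reduced by more than half and red fluorescence within 50% of control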; further: strong numbers were not always called active
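system = RFP-PRO-GFP reporter HT1080 cells | dosing = 20 µM single dose, 1% DMSO | timing = overnight cell settling, then overnight compound exposure, 37 °C, 5% CO2 | read-out basis = GFP/RFP fluorescence ratio | controls = DMSO and RFP-L50D-GFP cell wells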
MT1-MMP act inh RFP: further read-out of MT1-MMP act inh, marked with its call; RFP signal change, %; measured here: RFP expression control read;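 0 = vehicle wells; hits needed this value within 50% of zero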
* hit, by the source's call; ? = inconclusive; [ ] = remark or other dose. Some of the compounds tested (hit frequency here may not be typical).

SMILES	HIV Env fusion	MT1-MMP act inh	MT1-MMP act inh RFP
CCCN(C)C1CN(Cc2cn(Cc3ccc(Cl)cc3)nn2)S(=O)(=O)C1 (stereo not drawn)	0	3	7
COCCCNC(=O)C[C@@H]1C[C@@]2(C(=O)OC)CCCCC=C2N(Cc2ccc3c(c2)OCO3)C1=O	-21	-1	3
CC1OC(C(C)(C)C)Cc2[nH][nH]c(=O)c21 (stereo not drawn)	7	5	6
CC(C)(C)n1nnnc1C(c1ccccc1)N1CCCN(Cc2ccc(F)cc2)CC1 (stereo not drawn)	-89	5	6
CCCCOc1ccc(C(=O)NCCN2CCC(n3c(=O)[nH]c4ccccc43)CC2)cc1	11	4	-5
O=C1/C(=C/c2ccccn2)SC(=S)N1Nc1ncc(C(F)(F)F)cc1Cl	-7	3	0
CC(=O)N1CCC(C(=O)N2c3ccccc3N=C(c3ccc(C(F)(F)F)cc3)C2C(=O)NC2CCCC2)CC1 (stereo not drawn)	-2	4	-3
C[C@@H](NC(=O)[C@@H]1CCCN1C(=O)[C@@H]1CCCN1C(=O)c1cccs1)c1ccccc1	13	2	2
COc1cc2c(cc1OC)C(Cc1cc(OC)c(OC)cc1[N+](=O)[O-])=NCC2	3	2	1
COc1ccc(OC)c(CN2C(=O)c3ccccc3C2c2nnnn2-c2c(C)cccc2C)c1 (stereo not drawn)	68*	1	-1
COc1c2ccccc2nn1C(C)C	-5	2	4
O=c1[nH]cncc1OCc1ccccc1	-15	-4	-1
c1ccc(CCNc2ccccn2)nc1	-15	6	12
CCOC(=O)N1CCN(C(=O)C[C@@H]2C[C@@]3(C(=O)OC)CC(C)(C)CC=C3N(Cc3ccccc3)C2=O)CC1	-11	6	4
Brc1ccc(-c2nnc3sc(CN4CCc5ccccc5C4)cn23)cc1	-6	2	3
O=C(NNc1ccccc1)c1ccc(Cl)c(Cl)c1	-2	6	0
Cc1ccc([C@H]2C[C@H](O)[C@@H](n3cc(-c4ccc(F)cc4)nn3)CN2C(=O)C2CCCCC2)cc1	1	-8	-7
Cc1ccccc1C1N=C2Oc3ccccc3C=C2C(=O)N1 (stereo not drawn)	-42	-1	-9
O=c1c(-c2ccccc2)cocc1-c1ccccc1	-12	-4	2
CC(C)(O)CN(CCCNC(=S)Nc1ccccc1)C(=S)Nc1ccccc1	15	-1	2
COC(=O)[C@@]12C[C@@H](CC(=O)N3CCC(c4ccccc4)CC3)C(=O)N(Cc3cccc4ccccc34)C1=CCC(C)(C)C2	-13	-8	-18
OC(CSc1nnnn1-c1ccccc1)Cn1c2ccccc2c2ccccc21 (stereo not drawn)	-6	4	-3
COc1ccc2c(c1)CC=C1C2CCC2(C)C(=O)C(=NO)CC12 (stereo not drawn)	-19	-3	2
Cc1cc(Br)cn2c(Cc3cccc(F)c3)c(-c3ccc(C#N)cc3)nc12	-55	-3	-3
CCOC(=O)C(=C1Nc2ccccc2N1)n1c(-c2ccco2)nc2ccccc21	28	-4	10
Next entries:
SMILES	HIV Env fusion	MT1-MMP act inh	MT1-MMP act inh RFP
Cn1c2ccccc2c2ccc3c(c21)C(=O)C=CC3=O	-43	2	4
CC(C)NC(=O)C1(C)CSCC(=O)N1CCCN1CCOCC1 (stereo not drawn)	4	0	3
CCCCCCCCN1C(=O)[C@H](CC(=O)N2CCN(C(=O)C3CC3)CC2)C[C@@]2(C(=O)OCC)CCCC=C12	-19	19	-5
CCCCNC(=O)C(NC(=O)c1ccc2c(c1)OCO2)C(=O)c1ccccc1 (stereo not drawn)	6	-3	0
COC(=O)C(=O)C1CCc2c(Cl)cc(OC)c(OC)c2C1=O (stereo not drawn)	13	-25	11
COc1ccc(CC2C(=O)NC(C)C(=O)N(C)C3Cc4ccc(cc4)Oc4cc(ccc4O)CC(C(=O)NC(C)C(=O)NC(C)C(=O)N2C)N(C)C3=O)cc1 (stereo not drawn)	77*	-45	-37
COc1cccc2c3cccc(OC)c3c3[nH]cnc3c12	-9	13	4
CCC(=O)N1Cc2cc(C(=O)NCCOC)nc(-c3cccc(-c4ccc(C#N)cc4)c3)c2[C@H]1CCO	24	2	8
O=C(Nc1ccc(F)cc1)C(c1ccccc1)N1CCN(c2cccc(C(F)(F)F)n2)CC1 (stereo not drawn)	51	-5	-4
CC(C)(C)n1nnnc1C(c1ccccc1)N1CCN(c2ccccc2)CC1 (stereo not drawn)	-4	2	-3
CCOC(=O)N1C(=O)NC(=O)C1c1ccc(Cl)cc1 (stereo not drawn)	6	-2	-1
Cc1ccc2c(c1C)-c1c(ccc(C)c1C)C(=O)C2=O	-335	10	-4
O=C1NC[C@@H](CCCCN2C[C@H](Cc3ccccc3)N(CCc3ccc(O)cc3)C(=O)C2=O)N(CCc2ccccc2)C1=O	0	-1	1
COC(=O)C[C@@H]1CC[C@@H](NC(=O)NC2CCCC2)[C@@H](CO)O1	-12	-1	3
COC(=O)[C@@]12C[C@@H](CC(=O)NCc3ccc(OC)c(OC)c3)C(=O)N(Cc3ccc4c(c3)OCO4)C1=CCC(C)(C)C2	-11	7	-3
Nc1nc(N)c(-c2cccc(C(F)(F)F)c2)c(Cc2cccc(C(F)(F)F)c2)n1	5	-9	-10
O=C(C(=O)c1ccc(O)c(O)c1)c1ccc(O)c(O)c1	-18	1	1
CC(=O)C1CN(S(=O)(=O)c2ccc(C)cc2)C(c2ccccc2)CC1C (stereo not drawn)	15	0	-4
Cc1c(C)n(CC(O)CSc2ccccc2)c2ccccc12 (stereo not drawn)	20	4	5
O=C(C[C@H]1CC[C@H]2[C@@H](COC[C@@H](O)CN2Cc2cc(F)ccc2F)O1)NCc1ccc(Cl)cc1	4[16.7 µM]	0	-8
COc1cc(NC(=NS(=O)(=O)c2ccccc2)c2ccccc2)ncn1	29	-2	4
CC(C)N(Cc1ccccc1)C(=O)COC(=O)C1CCN(c2ccc(C(F)(F)F)cn2)CC1	12	3	2
Cc1cc2c(cc1C)-c1nnnn1C(N1CCCC1)C(=O)N2 (stereo not drawn)	-8	0	5
CCCCNC(=O)C(NC(=O)c1ccc(C)cc1)C(=O)c1ccccc1 (stereo not drawn)	?	0	3
COc1cccc(C(=O)NC2CC3CCCC(C2)N3Cc2ccc(F)cc2)c1 (stereo not drawn)	-12	-6	2

Complete entries from above. Order of values: HIV Env fusion | MT1-MMP act inh | MT1-MMP act inh RFP
Cc1cc2c(cc1C)-c1nnnn1C(N1CCCC1)C(=O)N2 (stereo not drawn) reads -8 | 0 | 5
COc1cc(NC(=NS(=O)(=O)c2ccccc2)c2ccccc2)ncn1 reads 29 | -2 | 4
CC(=O)C1CN(S(=O)(=O)c2ccc(C)cc2)C(c2ccccc2)CC1C (stereo not drawn) reads 15 | 0 | -4

Additional compounds follow:
SMILES	HIV Env fusion	MT1-MMP act inh	MT1-MMP act inh RFP
CCc1ccc(C(C#N)=CC=Cc2ccccc2)cc1	-334	-1	1
COc1ccc(OC)c(N(CCN2C(=O)c3ccccc3C2=O)C(=O)C2CCC(=O)C2C)c1 (stereo not drawn)	6	-4	1
COc1cc2c(c(OC)c1OC)-c1ccc(OC)c(=O)cc1C(NC(=O)c1ccccc1)CC2 (stereo not drawn)	-65	25	4
CN(C)CCC(C(=O)c1ccccc1)c1cccnc1 (stereo not drawn)	11	-1	-7
CCCc1c(-c2cccc(F)c2)ncn1CCc1ccccc1OC	13	-3	-18
Nc1ccc(S(=O)(=O)NN=Cc2ccccc2[N+](=O)[O-])cc1	-14	0	-1
O=C(CCCC(=O)NN=Cc1ccccc1Cl)NN=Cc1ccccc1Cl	7	-2	0
COc1ccc(C2=Nc3ccccc3N(C(=O)c3ccncc3)C2C(=O)NC(C)(C)C)cc1 (stereo not drawn)	-7	-1	2
CN(C(=O)COc1ccccc1C(=O)NCc1ccccc1)C1CCS(=O)(=O)C1 (stereo not drawn)	2	3	6
CCC(=O)N1CCc2cc(Br)c(S(=O)(=O)CCC(=O)NCCOC)cc21	8	-1	2
COc1cc2cc(C)c(Br)c(OC)c2cc1OC	19	2	0
CC(C)C[C@@H](CN1CCCC1CN1C(=S)NC[C@@H]1Cc1ccccc1)N1C[C@H](Cc2ccc(O)cc2)N(CC2CCCCC2)C1=S (stereo partly drawn)	-16	-1	-8
COC(=O)[C@]12CCCCC=C1N(Cc1ccc3c(c1)OCO3)C(=O)[C@H](CC(=O)NCc1ccc(C)o1)C2	11	5	-5
O=C1/C(=C\c2ccc(O)cc2)CCC1CNc1ccc(Cl)cc1 (stereo not drawn)	1	-10	-10
COC(=O)[C@@]12C[C@@H](CC(=O)N3CCCCC3)C(=O)N(Cc3ccco3)C1=CCC(C)(C)C2	0	-6	0
CC1CCCN(S(=O)(=O)c2ccc(C(=O)NC(C)c3ccccc3)cc2)C1 (stereo not drawn)	-2	0	3
O=C(c1ccco1)N1CCN(C(=O)c2ccco2)C1=S	-15	-6	-3
CC(=NNC(=S)Nc1cccc(Cl)c1)c1ccccn1	4	15	-1
CC(C)=CCC[C@H](C)C[C@@H]1Cc2[nH][nH]c(=O)c2[C@@H](c2ccc(F)cc2)O1	24	2	-2
O=C(NCCN1CCC(n2c(=O)[nH]c3ccccc32)CC1)c1ccc(OC(F)(F)F)cc1	-40	3	0
Cc1cccc(C)c1NC(=O)C1(C)CN(S(C)(=O)=O)CC(=O)N1Cc1cccc(F)c1 (stereo not drawn)	6	2	5
CC(C)(C)n1nnnc1C(c1cc2ccccc2o1)N(CCC#N)Cc1ccccc1 (stereo not drawn)	24	-6	-9
CN(O)C(=S)c1ccccc1	-5	2	-10
COc1ccccc1Cc1c(-c2ccc(OC)c(OC)c2)nc2c(Cl)cc(C(F)(F)F)cn12	-5	0	-1
CCOC(=O)c1c(C)[nH]c(C(=O)OCC(O)=C(C#N)c2nc3ccccc3[nH]2)c1C	-25	-9	0

Five entries out of the list, ordered by count of non-hydrogen atoms, high to low:
SMILES	HIV Env fusion	MT1-MMP act inh	MT1-MMP act inh RFP
CC(C)C[C@@H](CN1CCCC1CN1C(=S)NC[C@@H]1Cc1ccccc1)N1C[C@H](Cc2ccc(O)cc2)N(CC2CCCCC2)C1=S (stereo partly drawn)	-16	-1	-8
COc1cc2c(c(OC)c1OC)-c1ccc(OC)c(=O)cc1C(NC(=O)c1ccccc1)CC2 (stereo not drawn)	-65	25	4
CCCc1c(-c2cccc(F)c2)ncn1CCc1ccccc1OC	13	-3	-18
Nc1ccc(S(=O)(=O)NN=Cc2ccccc2[N+](=O)[O-])cc1	-14	0	-1
CCc1ccc(C(C#N)=CC=Cc2ccccc2)cc1	-334	-1	1

Another view of some results above.
| Molecule | HIV Env fusion | MT1-MMP act inh | MT1-MMP act inh RFP |
| --- | --- | --- | --- |
| COc1ccc(OC)c(CN2C(=O)c3ccccc3C2c2nnnn2-c2c(C)cccc2C)c1 (stereo not drawn) | 68* | 1 | -1 |
| COc1c2ccccc2nn1C(C)C | -5 | 2 | 4 |
| O=c1[nH]cncc1OCc1ccccc1 | -15 | -4 | -1 |
| c1ccc(CCNc2ccccn2)nc1 | -15 | 6 | 12 |

Other results.
SMILES	HIV Env fusion	MT1-MMP act inh	MT1-MMP act inh RFP
CCCCCCCCOC(=O)c1cc([N+](=O)[O-])c(Sc2ncnc3nc[nH]c23)c([N+](=O)[O-])c1	1	14	3
C=CCn1c(Cn2c(-c3cnccn3)nc3ccccc32)nc2ccccc21	12	5	3
COCCCn1cc(CN2CC(N3CCCCC3)CS2(=O)=O)nn1 (stereo not drawn)	-12	8	7
COc1ccc(-c2cc3nc(C)cc(N4CCN(C(=O)c5ccoc5)CC4)n3n2)cc1	6	3	-10
COC(=O)C[C@@H]1CC[C@@H](NS(=O)(=O)c2ccc(F)cc2)[C@@H](CO)O1	-3	0	4
COc1cccc2c1OC1(N3CCOCC3)CCCCC1C2C[N+](=O)[O-] (stereo not drawn)	6	1	-2
CC1(C(=O)Nc2ccc3c(c2)OCCO3)CN(S(C)(=O)=O)CC(=O)N1CCc1ccc(O)cc1 (stereo not drawn)	4	7	7
COc1ccccc1C=NN=C1c2ccccc2-c2ccccc21	12	9	6
COC(=O)[C@]12CCCCC=C1N(Cc1cccc3ccccc13)C(=O)[C@H](CC(=O)NCc1cccc(C(F)(F)F)c1)C2	19	-7	-17
CCN(C)C1CN(Cc2cn(CCCOC)nn2)S(=O)(=O)C1 (stereo not drawn)	6	0	7
O=C1c2ccccc2C(c2nnnn2Cc2ccccc2)N1CCCN1CCOCC1 (stereo not drawn)	-12	13	9
CCN(C(C)=O)c1cnc(C=NNC(N)=S)c2ccccc12	9	8	0
CC(C)C1(c2ccsc2)NC(=O)NC1=O (stereo not drawn)	2	1	3
O=c1c2ccccc2nnn1-c1ccccc1	-5	0	0
N#Cc1nnn2c1nc(N)c1c(Cl)cccc12	-8	1	3
Cc1ccc(-c2cccc(=O)o2)cc1	-46	0	6
Cn1nc(C(=O)NCC(c2cccs2)N2CCOCC2)c2ccccc2c1=O (stereo not drawn)	-3	2	0
CCOC(=O)C1CCCN(C(=O)/C=C/c2ccccc2)CC1 (stereo not drawn)	-27	9	3
Cc1cccc(Nc2nnc(SCC(O)=C(C#N)c3nc4ccccc4[nH]3)s2)c1	11	-21	-4
CC(C)(CNS(=O)(=O)c1cccs1)N1CCOCC1	2	1	3
NC(Cc1ccc(F)cc1)c1csc(Nc2ccc(C(F)(F)F)cn2)n1 (stereo not drawn)	71*	-3	1
c1ccc(Cc2c(C3CCCCC3)nc3c4ccccc4ccn23)cc1	-63	-8	0
Cc1ccc(N2CCN(C(=O)C(=O)c3ccc(F)c(F)c3)CC2)cc1	0	2	3
